# Source: PubChem
# Env fusion inh = inhibitors of HIV-1 Env-driven cell-cell fusion, primary screen, HeLa-JRFL effector, CEM21 target cells, luciferase. 360,000 compounds, 1.1% hits. inhibition, % at 12.3 µM;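 active means mean replicate inhibition score of at least 50 and every replicate individually at or above 50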;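 further: 0% = plate neutral controls and 100% = maraviroc near 300 nM; one replicate is shown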
# CSC inhib = cancer stem cell viability inhibitors, primary screen, luminescence; AID 2717, 2010; 300,000 compounds, 1.1% hits; inhibition, % at 7.5 µM; cancer stem cell-like cells viability;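 active means mean at 75% or more and at least half the replicates too; tested in HMLE shEcad cells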;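 further: 0% = median of negative and 100% = median of positive control wells; the first replicate is given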
# UUG fidelity = modulators of yeast start codon fidelity, primary screen, whole organism, S. cerevisiae, single point, plate reader. 350,000 compounds, 0.13% hits. AID 602363, 2012. activity score, % at 18.7 µM. S. cerevisiae UUG-firefly luciferase reporter, luminescence/redox ratio;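 active means replicate mean at a twofold rise or more, about +100% in these data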;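 further: firefly luciferase made from a UUG start codon reports start codon fidelity; reporter light over untreated wells divided by growth signal over untreated wells; some hits fall short of that in this replicate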
# MT1-MMP act inh = blockers of MT1-MMP proenzyme processing, primary screen, HT1080 RFP-PRO-GFP cells, GFP/RFP fluorescence; Matrix metalloproteinase-14 (Homo sapiens), P50281; GFP/RFP ratio fluorescence, overnight; percent of plate control window, DMSO zero; GFP/RFP ratio change, % at 20 µM; 360,000 compounds, 0.061% hits; AID 651647, 2012;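 active means GFP/RFP ratio change of at least 30% with cell ATP level not reduced by more than half and red fluorescence within 50% of control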; further: strong numbers were not always called active
#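 Assay system: RFP-PRO-GFP reporter HT1080 cells; read-out basis: GFP/RFP fluorescence ratio; benchmarks: DMSO wells and RFP-L50D-GFP cells; doses: 20 µM single dose, 1% DMSO; schedule: overnight cell settling, then overnight compound exposure, 37 °C, 5% CO2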
# PABP FP inh = PABP poly(A) RNA binding inhibitors, primary screen, biochemical, fluorescence polarization, uHTS; inhibition, % at 35 µM; 290,000 compounds, 1% hits; AID 2014, 2009; Polyadenylate-binding protein 1 (Homo sapiens), P11940;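 active means 50% or more with normal probe brightness, or confirmed in later tests; about a fifth of its hits are not listed in these tables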;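 further: calls also rest on retests at 20 µM and on dose response follow-up; controls were probe without protein and protein plus probe with vehicle; some compounds called inactive have numbers as strong as hits; many hits fall short of the cut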
# Target sequence (P11940 whole entry, looked up): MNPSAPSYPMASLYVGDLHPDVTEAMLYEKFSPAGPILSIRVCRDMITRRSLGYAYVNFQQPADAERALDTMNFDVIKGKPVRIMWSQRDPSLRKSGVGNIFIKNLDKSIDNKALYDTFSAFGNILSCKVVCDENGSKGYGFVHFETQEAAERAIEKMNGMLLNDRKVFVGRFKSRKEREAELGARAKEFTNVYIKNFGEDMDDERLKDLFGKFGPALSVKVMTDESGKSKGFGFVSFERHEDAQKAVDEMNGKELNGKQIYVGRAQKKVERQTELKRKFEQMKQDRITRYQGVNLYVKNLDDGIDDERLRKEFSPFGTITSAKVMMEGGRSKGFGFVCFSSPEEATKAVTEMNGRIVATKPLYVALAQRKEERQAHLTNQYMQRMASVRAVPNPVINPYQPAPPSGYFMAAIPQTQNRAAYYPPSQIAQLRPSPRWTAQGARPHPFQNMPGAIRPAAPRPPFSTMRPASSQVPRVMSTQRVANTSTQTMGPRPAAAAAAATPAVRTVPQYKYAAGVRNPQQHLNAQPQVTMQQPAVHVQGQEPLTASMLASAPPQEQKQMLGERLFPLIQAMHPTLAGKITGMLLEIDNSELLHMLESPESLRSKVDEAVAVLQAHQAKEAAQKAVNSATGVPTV
# eIF4H FP inh = human eIF4H binding inhibitors, primary screen, translation initiation inhibitor project, biochemical, uHTS, fluorescence polarization. Eukaryotic translation initiation factor 4H (Homo sapiens), Q15056. eIF4H fluorescence polarization binding assay. 290,000 compounds, 0.94% hits. inhibition, % at 35 µM;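 active means 50% or more with normal probe brightness, or confirmed in later tests; about a fifth of its hits are not listed in these tables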;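 further: calls also rest on retests at 20 µM and on dose response follow-up; 0% = protein and probe with vehicle and 100% = probe without protein; strong numbers were not always called active; many hits fall short of the cut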
# Rce1 inhib = yeast Rce1p protease inhibitors, primary screen, biochemical, fluorescence, cell-free homogeneous; CAAX prenyl protease 2 (Saccharomyces cerevisiae (strain ATCC 204508 / S288c)), Q03530; yeast membranes, quenched prenylated peptide cleavage fluorescence; calls only; 290,000 compounds, 0.27% hits;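 active means fall in fluorescence gain of 50% or more versus controls, with final raw signal at or below 3038400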;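 further: plate controls were neutral control wells for no effect and wells lacking membranes for full effect; tested at 10 µM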
# eIF4H FP inh retest = also measured in eIF4H FP inh; calls as there; inhibition, %; compound at 20 µM; confirmation average;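 mean of two retest wells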
# PABP FP inh retest = recorded beside PABP FP inh, whose call it bears; inhibition, %; compound at 20 µM; confirmation repeats;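 mean of two retest wells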
# MT1-MMP act inh RFP = recorded beside MT1-MMP act inh, whose call it bears; RFP signal change, %; measured here: RFP expression control read;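 0 = vehicle wells; hits needed this value within 50% of zero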
# Active calls of the source: *; i = inactive; nt = not tested or not shown. Only part of the results is shown. The share of hits here may be higher or lower than overall.
SMILES,Env fusion inh,CSC inhib,UUG fidelity,MT1-MMP act inh,MT1-MMP act inh RFP,PABP FP inh,eIF4H FP inh,Rce1 inhib,others
O=C(Nc1c(C(=O)N2CCN(c3ccccn3)CC2)oc2ccccc12)c1cccc([N+](=O)[O-])c1,8,nt,0,-3,-3,-2,-1,i,
CC1(C)Cc2c(cnn2-c2ccc(F)cc2)C(NC(=O)CN2CCCC2=O)C1 (stereo not drawn),-4,-3,-5,3,2,-3,-7,i,
O=C(CSc1nnc(COc2ccc(F)cc2)o1)N1c2ccccc2CCc2ccccc21,46,28,-3,2,-10,54,-8,i,eIF4H FP inh retest=3;PABP FP inh retest=-6
Cc1ccc(NS(=O)(=O)c2ccc(Cl)nc2)c(C)c1,3,nt,18,4,0,nt,nt,nt,
Cc1ccc(O)c(Nc2nc(-c3ccccc3)nc3ccccc23)c1,2,6,4,8,1,2,-6,i,
Cc1cc(C(=O)N2CCN(Cc3ccccc3)CC2)ccc1[N+](=O)[O-],-11,2,-16,2,-2,13,5,i,
O=C(NC1CCCCC1)C(c1ccccn1)N(C(=O)c1csnn1)C1CC1 (stereo not drawn),-1,-15,nt,1,5,-2,3,i,
Cn1cnnc1SCC(=O)N/N=C/c1ccc(OCC(N)=O)cc1,-4,-6,nt,1,1,-1,5,i,
CCC(=O)N1N=C(c2ccccc2)CC1c1ccc([N+](=O)[O-])cc1 (stereo not drawn),19,-5,-7,3,1,-1,-9,i,
Cc1ccc(C)c(NC(=O)CCC(=O)NNC(=O)C(c2ccccc2)c2ccccc2)c1,-18,-12,nt,nt,nt,1,8,i,
CN(C(=O)COC(=O)CCCN1C(=O)c2cccc3cccc(c23)C1=O)C1CCS(=O)(=O)C1 (stereo not drawn),2,-4,0,1,0,nt,nt,i,
O=C1CC(/C=C/c2ccc([N+](=O)[O-])cc2)=Nc2ccccc2N1,17,3,-13,-3,-3,-8,3,i,
CCOC(=O)N1CCC(NC(=O)c2cc(C(=O)NC3CCN(Cc4ccccc4)CC3)ccc2CO)CC1,1,-13,nt,-11,-5,10,11,i,
Cc1ccc(N2CCC(N3CCN(C4CCCCC4)C(CCO)C3)CC2)cc1 (stereo not drawn),8,27,-11,4,5,11,-1,i,
COCCNC(=O)CCC(=O)NNc1nc2ccccc2c2nc(-c3ccccc3)nn12,-12,9,nt,1,1,-8,-1,i,
COCCCN(C(=S)Nc1ccc(OC)cc1)C(C)c1ccncc1 (stereo not drawn),4,-1,nt,-2,-3,1,0,i,
CC(C)(C)c1ccc(S(=O)(=O)NC(=O)C2(C)CCN2C(=O)Cc2ccccc2Cl)cc1 (stereo not drawn),16,nt,12,3,0,nt,nt,nt,
CC(=O)Nc1ccc(NC(=O)COC(=O)c2ccc([N+](=O)[O-])o2)cc1,-8,-2,-10,0,3,nt,nt,nt,
COc1ccc(Cn2c(CO)cnc2SCC(=O)Nc2cccc(NC(C)=O)c2)cc1,-2,3,-2,0,2,1,-2,i,
COc1ccc([N+](=O)[O-])cc1NC(=O)CCN1CCN(CCO)CC1,-18,2,-14,-2,2,-1,2,i,
O=C(NC(=S)Nc1nc2ccccc2s1)c1ccco1,-56,-6,nt,3,2,3,-2,i,
COc1ccc(S(=O)(=O)NCCSc2ccccc2)cc1OC,-1,-11,-9,-2,-4,10,-3,i,
CC(=O)N1CSCC1C(=O)NNS(=O)(=O)c1ccccc1 (stereo not drawn),12,-12,124*,-1,6,4,-1,i,
C(=N\n1cncn1)/c1ccc(N2CCOCC2)cc1,-263,-1,-3,1,-9,1,-2,i,
c1cnc2ccc(C(c3nnnn3C3CCCCC3)N3CCN(C4CCCCC4)CC3)cc2c1 (stereo not drawn),-33,-20,-2,2,0,nt,nt,i,
COc1ccc(-c2cn(/N=C/c3ccc(Cl)cc3Cl)c(N)n2)cc1,-1,-3,-26,-2,-8,8,3,i,
Cc1ccc(-c2ccc(S(=O)(=O)NCC3CCCO3)cc2)cc1 (stereo not drawn),0,-14,nt,5,-13,-5,4,i,
COc1ccccc1NC(=O)CC(c1ccc(OC(C)C)cc1)c1ccccc1OC (stereo not drawn),19,28,nt,-11,-13,-9,2,i,
O=S(=O)(c1ccccc1)N1CCN(C(=S)Nc2ccc(F)cc2)CC1,-18,4,-18,4,3,-5,-5,i,
CC1(C(=O)NS(=O)(=O)c2ccccc2)CCN1C(=O)c1cccc2ccccc12 (stereo not drawn),-4,nt,-2,-2,1,nt,nt,nt,
O=C(OCC(=O)N1CCCCCC1)c1cccc(Cl)c1Cl,-8,nt,-11,4,4,nt,nt,nt,
O=S1(=O)CC(N2CCN(CC3CC3)CC2)CN1Cc1cn(Cc2ccccc2C(F)(F)F)nn1 (stereo not drawn),-44,nt,41,4,3,nt,nt,nt,
CCN(CC)S(=O)(=O)c1cc(NC(=O)CSc2nc3c(cc2C#N)C(=O)CC(C)(C)C3)ccc1C,nt,52,-10,-11,-20,3,3,i,
CS(=O)(=O)c1ccc(CNC(=O)C2(C(F)(F)F)CC(CCCO)CCCO2)cc1 (stereo not drawn),2,45,nt,nt,nt,nt,nt,i,
COCCCNC(=O)c1csc([C@@H]2O[C@H](CO)[C@H](O)[C@H](O)[C@H]2O)n1,-31,nt,-24,3,4,nt,nt,nt,
O=C(CSc1nnc(-c2ccccc2)c(-c2ccccc2)n1)NCc1ccco1,-2,-1,-12,-9,-8,0,3,i,
Brc1cccc(-c2nnc3sc(CN4CCCCC4)cn23)c1,nt,-9,-14,4,2,12,12,i,
Cn1cc(S(=O)(=O)N2CCCC2)cc1C(=O)N1CCN(c2cccc(Cl)c2)CC1,-8,7,-16,0,-2,-9,-3,i,
CCCCC(C(=O)NCCC(C)C)N(CCCN1CCOCC1)C(=O)c1snc(C(N)=O)c1N (stereo not drawn),-45,-3,18,0,2,-6,-5,i,
Cc1c(NC(=O)c2nn(C(C)C)c(=O)c3ccccc23)c(=O)n(-c2ccccc2)n1C,1,nt,12,9,-4,nt,nt,nt,
CCN(C(=O)C=Cc1ccco1)c1ccccc1,-2,nt,-20,-5,1,nt,nt,nt,
O=C(Nc1nnc(-c2ccc(F)cc2)s1)c1ccco1,-49,-3,-22,3,2,1,6,i,
CCOC(=O)c1cc2c(c(-c3ccccc3)n1)[C@@H](CCO)N(S(=O)(=O)C(C)(C)C)C2,4,nt,-5,1,4,nt,nt,nt,
CCn1ccnc1CN(C)Cc1cn(-c2cc(C)ccc2C)nc1-c1ccccc1,-2,16,-16,-13,-9,2,0,i,
Cc1nn(-c2ccccc2)c(C)c1/C=N/Nc1nc2ccccc2[nH]1,-342,40,-62,18,-4,4,8,i,
OC(c1cccc(Cl)c1)c1ncc(-c2ccccc2Cl)[nH]1 (stereo not drawn),-5,nt,-9,5,-1,nt,nt,nt,
NC(=O)c1ccccc1OCC(=O)NS(=O)(=O)c1ccccc1,-1,2,nt,-8,-5,8,-2,i,
CN(CP(=O)(O)CCc1ccccc1)S(C)(=O)=O,nt,-18,-6,-1,3,25,-4,i,
O=C(Nc1ccccc1)ON=C1CCCC1,nt,16,-4,3,7,7,-6,i,
Cc1ccc(F)cc1NC(=O)C12CC3CC(C1)CC(n1cnc([N+](=O)[O-])n1)(C3)C2,nt,-9,-4,3,3,2,-2,i,
Cc1ccc(C(=O)NCC2CCCO2)cc1S(=O)(=O)N1CCCCC1 (stereo not drawn),-12,-7,-11,-1,-2,11,-4,i,
CCC1(c2ccc(F)cc2)NC(=O)N(CC(=O)N2CCN(S(=O)(=O)c3ccc(Cl)cc3)CC2)C1=O (stereo not drawn),5,-8,16,2,-2,nt,nt,i,
Cc1cc(NC(=O)CSc2nc(-c3ccccc3)nc3c2c(=O)n(C)c(=O)n3C)no1,-10,-2,14,-2,6,2,-5,i,
COCCCN(C(=O)Nc1ccccc1)C(C)c1ccncc1 (stereo not drawn),5,-12,-13,5,6,18,1,i,
COc1ccc(-c2cc3nc(C)cc(N4CCN(C(=O)c5ccco5)CC4)n3n2)cc1,-11,nt,-14,3,-4,nt,nt,nt,
O=C(O)c1[nH]c2ccccc2c1NS(=O)(=O)Cc1ccccc1,-35,-15,-14,5,3,4,-6,i,
Fc1ccc(C(c2nnnn2Cc2ccco2)N2CCN(C3CCCCC3)CC2)cc1 (stereo not drawn),nt,3,-15,-7,3,0,-6,i,
COC(=O)c1ccc(OC(=O)c2cccnc2SC)cc1,-11,nt,nt,0,2,-5,2,i,
O=C(NC1CCCCC1)C(c1ccccn1)N(C(=O)Cc1cccs1)c1ccc(Cl)cc1 (stereo not drawn),26,-5,-4,-11,-8,-1,-3,i,
COc1nc(-c2ccc(Cl)cc2)nnc1C,-103,1,nt,4,5,-7,-5,i,
C=CCn1c(C(C)NC(=O)COC)nc2ccccc21 (stereo not drawn),-80,-6,-11,-3,1,1,1,i,
Cc1c(Cl)cccc1N=C1SCCN1C(=O)CN1C(=O)NC2(CCCC2)C1=O,6,-4,16,1,1,nt,nt,i,
O=C(NCCC1CCCCN1S(=O)(=O)c1ccccc1)C(=O)NCCN1CCOCC1 (stereo not drawn),nt,-9,-12,10,4,nt,nt,i,
